RanGTP-Impb inh = inhibitors of RanGTP-importin-beta interaction, primary screen, biochemical, FRET, CFP-Ran, YFP-importin-beta, homogeneous; 300,000 compounds, 1.1% hits; cell-free CFP-Ran/YFP-importin-beta FRET ratio; inhibition, % (concentration not given with the values); Ran GTPase (GTP-bound) - importin-beta complex;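 active = most replicates above 15%; inconclusive = exactly half above 15%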;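 also: 0% = DMSO wells and 100% = Ran loaded with GDP instead of GTP; wells of about 40 µL received 100 nL stock; the first replicate is given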
Beta cell apopt = inhibitors of cytokine-induced beta cell apoptosis, primary screen, luminescence; 300,000 compounds, 0.8% hits; INS-1E cytokine-induced death, ATP luminescence, 48 h; percent of positive-control rescue, neutral wells zero; protection from apoptosis, % (test concentration not listed);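 active = all replicates at 75% or more, or half of them and the mean; inconclusive = half reach 75% but not the mean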;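 also: 0% = cytokine-treated negative control wells and 100% = positive control rescue; higher means more ATP so stronger rescue from cytokine killing; wells of about 40 µL received 100 nL stock; the first replicate is given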
Bfl-1 A1 inh = caspase 3/7 activation in MEF A1-2A-BIM cells, primary screen, A1 inhibitor project, cell-based, luminescence, HTS; Caspase-Glo 3/7 luminescence, 3 h; percent of clofoctol response, vehicle zero; caspase activation, % (concentration not given with the values); AID 2462, 2010; 330,000 compounds, 0.066% hits;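 active = over half of replicate activation scores above 10%, or exactly half above 10 with the replicate mean above 10; inconclusive = replicate mean below 10 yet half the replicates above 10; inactive = over half of replicates below 10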;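 also: wells of about 30 µL received 50 nL stock; many hits fall short of the cut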
LANA-H2B inh = blockers of LANA interaction with H2A/H2B – biochemical, FP readout, HTS, primary screen | cell-free LANA-H2A/H2B peptide, fluorescence polarization | inhibition, % (no concentration beside the values) | 320,000 compounds, 0.6% hits; in the data active = inhibition mostly above about 10%, no sharp cut-off; inactive = mostly below about 6.7%;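 also: stock transfer was 7.5 nL into about 10 µL; 0% = median of vehicle wells and 100% = median of positive control wells; one replicate is shown; the record names a cut of 25% in any replicate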
Target sequence (Q9QR71 whole entry, looked up): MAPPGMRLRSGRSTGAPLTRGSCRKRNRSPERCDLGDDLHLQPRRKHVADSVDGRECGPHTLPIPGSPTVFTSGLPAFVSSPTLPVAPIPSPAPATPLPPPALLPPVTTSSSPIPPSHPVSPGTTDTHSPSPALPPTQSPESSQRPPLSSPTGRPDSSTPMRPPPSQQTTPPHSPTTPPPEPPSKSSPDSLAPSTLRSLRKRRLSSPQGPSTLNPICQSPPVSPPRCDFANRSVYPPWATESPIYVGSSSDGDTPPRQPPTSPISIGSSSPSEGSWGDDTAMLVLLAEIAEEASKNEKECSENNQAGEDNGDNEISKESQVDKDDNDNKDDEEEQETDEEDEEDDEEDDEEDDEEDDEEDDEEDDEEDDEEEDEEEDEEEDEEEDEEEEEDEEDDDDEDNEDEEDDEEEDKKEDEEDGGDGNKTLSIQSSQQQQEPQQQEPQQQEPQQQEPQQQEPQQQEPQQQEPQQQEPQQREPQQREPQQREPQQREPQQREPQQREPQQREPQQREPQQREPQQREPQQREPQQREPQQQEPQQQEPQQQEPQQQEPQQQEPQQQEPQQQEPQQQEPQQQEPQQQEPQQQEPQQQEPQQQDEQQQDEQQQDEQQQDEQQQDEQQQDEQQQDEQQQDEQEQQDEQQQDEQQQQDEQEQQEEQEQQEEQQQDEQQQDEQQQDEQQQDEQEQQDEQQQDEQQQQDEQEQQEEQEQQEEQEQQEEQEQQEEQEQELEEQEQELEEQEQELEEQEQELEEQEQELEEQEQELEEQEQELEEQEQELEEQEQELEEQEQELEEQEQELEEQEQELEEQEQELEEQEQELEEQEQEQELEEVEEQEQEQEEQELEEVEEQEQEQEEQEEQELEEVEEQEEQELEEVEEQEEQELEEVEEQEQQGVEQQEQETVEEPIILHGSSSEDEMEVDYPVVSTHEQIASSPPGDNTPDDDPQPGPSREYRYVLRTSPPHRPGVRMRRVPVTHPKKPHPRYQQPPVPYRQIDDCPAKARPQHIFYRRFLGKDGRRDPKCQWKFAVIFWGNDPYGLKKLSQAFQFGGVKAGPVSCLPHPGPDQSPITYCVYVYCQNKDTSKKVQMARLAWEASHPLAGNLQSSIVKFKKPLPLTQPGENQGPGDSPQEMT
Calb FLC = C. albicans growth inhibition with fluconazole, primary screen, CaCi-2 strain, Alamar Blue fluorescence; C. albicans CaCi-2 (fluconazole-resistant clinical isolate) + fluconazole, 48 h; growth inhibition, % (test concentration not listed); 300,000 compounds, 0.57% hits;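 active = most replicates above 75%; inconclusive = exactly half above 75%; inactive = most below 75%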;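 also: all wells also contain fluconazole at 8 µg/ml as a sub-toxic cotreatment; 0% = median of DMSO wells and 100% = median of geldanamycin control wells; wells of about 8 µL received 7.5 nL stock; the first replicate is given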
Beta2AR agonist = beta2AR agonists driving receptor internalization, primary screen, cell-based, FAP fluorogen, flow cytometry. Beta-2 adrenergic receptor (Homo sapiens), P07550. Am2.2-beta2AR cells; reference of the scale not given here. response, % (test concentration not listed). 340,000 compounds, 0.43% hits. AID 504454, 2011;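 active = response above a set limit, near 3 SD of response in nonfluorescent compounds, cut at about 42% in these data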;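 also: stock transfer was 100 nL into about 11 µL; a reference agonist was the positive control; negative values mostly stem from fluorescent compounds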
T cruzi repl = inhibitors of intracellular T. cruzi growth, primary screen, luminescence, NIH3T3 host cells; AID 1885, 2009; 300,000 compounds, 1.4% hits; T. cruzi beta-gal in NIH3T3, 90 h; inhibition, % (test concentration not listed);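 active = mean inhibition across valid replicates above about 55%, limit read from the data; inconclusive = mean below that limit but half or more replicates reach it; inactive = mean below it, under half of replicates reach it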;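 also: signal also drops with host cell toxicity which is not excluded here; 0% = plate median of DMSO wells and 100% = zero luminescence signal; higher percent means less beta-gal luminescence so fewer parasites; stock transfer was 50 nL into about 50 µL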
UCH37 inh = inhibitors of human UCH37 deubiquitinase, primary screen, biochemical, Ub-AMC cleavage, fluorescence; purified proteasome/UCH37; Ubiquitin carboxyl-terminal hydrolase isozyme L5 (Homo sapiens), Q9Y5K5; 330,000 compounds, 0.33% hits; inhibition, % (test concentration not listed);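 active = mean of two replicates above 20%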;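 also: 0% = compound-free wells with enzyme and 100% = wells lacking proteasome; stock transfer was 100 nL into about 20 µL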
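Material: human UCH37 enzyme supplied as purified proteasome complex / Amount: 0.15 nM proteasome as dispensed / Buffer or medium: pH 7.4 Tris-HCl (50 mM) with ovalbumin, ATP-MgCl2, DTT / Times: preincubation 30 min, reaction 25 min, room temperature / Technique: AMC fluorescence from Ub-AMC cleavage, excitation 355 nm, emission 460 nm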
The depositor's hits bear a star; i = inactive; ? = inconclusive; . = no result given. Random draw from the library. Share with any hit: about 4.3%.

SMILES	RanGTP-Impb inh	Beta cell apopt	Bfl-1 A1 inh	LANA-H2B inh	Calb FLC	Beta2AR agonist	T cruzi repl	UCH37 inh
COC(=O)[C@]1(C)N[C@H](CN(C)S(=O)(=O)c2ccc(F)cc2)[C@@H]2C(=O)N(C)C(=O)[C@@H]21	.	6	-0.2	0.4	.	-6	.	0.1
CCCN1CCC(NC(=O)CCc2nnc(Cc3cc(OC)ccc3OC)o2)CC1	5.0	-1	-1.2	-6.3	-15	-6	.	-0.4
Cc1ccc2cccc(N)c2n1	1.2	52	0.7	1.3	-1	7	-8	4.7
Cc1cccc(NC2SC(=O)N(CC(=O)O)C2=O)c1 (stereo not given)	-3.1	-1	-0.4	3.5	0	6	-24	4.5
CC1CCCC(NC(=O)c2cc(S(=O)(=O)N3CCCCC3)ccc2Cl)C1C (stereo not given)	.	5	-0.7	-0.8	.	-5	.	3.6
COc1ccccc1N1CCN(CCCCNC(=O)c2ccc3ccccc3c2)CC1	.	-1	0.7	-1.8	.	3	.	2.5
CCN(CC)S(=O)(=O)c1cc(C(=O)Nc2ccccn2)ccc1C	-0.3	-5	-2.5	-0.2	3	-6	-1	3.8
COc1cccc(CN(C(=O)CN2C(=O)c3ccccc3S2(=O)=O)C(C(=O)NCC2CCCO2)c2ccco2)c1 (stereo not given)	1.8	2	0.5	-1.6	4	-1	1	-0.3
Cc1ccc(N(CC(=O)N2CCCCCC2)S(=O)(=O)c2ccccc2)cc1	1.0	1	0.9	-11	-4	4	13	0.4
COc1ccc(/C=N/Nc2cc(C)nc(N3CCOCC3)n2)cc1OC	1.6	-11	0.9	-3.5	21	6	3	.
O=c1oc(C2(O)CCCCC2)cc2ccccc12	.	-15	0.9	2.8	.	-8	.	0.2
COc1ccccc1C(=O)Oc1cc(N)n(S(=O)(=O)c2ccc(C)cc2)n1	0.8	-7	-0.6	3.4	-1	14	4	2.9
Cc1cc(=O)oc2ccc(OCc3ccccc3)cc12	6.7	6	1.4	3.0	3	-3	-17	-32
O=C(O)C1CCC(CNCc2ccncc2)CC1 (stereo not given)	-3.0	-5	-0.2	-0.8	3	-7	-10	2.9
CCOc1cc(/C=C/C(=O)NCCc2ccc(S(N)(=O)=O)cc2)ccc1OCC(C)C	0.4	-1	-0.3	-3.0	?	3	2	-9.5
CCOC(=O)C1=C(O)/C(=C/c2cc(OC)c(O)c(OC)c2)SC1=Nc1ccc(OC)cc1	4.9	.	.	.	11	-39	-19	8.0
CC(=O)N1CCN(c2ccc(S(=O)(=O)N3CCCCC3)cc2[N+](=O)[O-])CC1	.	2	0.7	2.6	.	-5	.	7.4
COc1ccc(S(=O)(=O)NC(C)C(=O)NCc2ccccn2)cc1Cl (stereo not given)	3.1	-2	1.0	-2.6	-3	-2	7	0.8
O=C(Cc1ccc(S(=O)(=O)N2CCOCC2)s1)Nc1ccccc1Br	-3.3	0	-0.6	-1.0	-2	-1	4	-1.3
COCCCNC(=O)Cc1ccc(S(=O)(=O)N2CCOCC2)s1	.	2	0.8	-1.2	.	-2	.	-0.9
CC(C)c1nc(-c2ccc([N+](=O)[O-])cc2)cs1	4.5	-4	-0.9	-1.8	-26	-4	-8	1.9
COC(=O)c1sc2nc(C)cc(C)c2c1N	2.3	.	-0.5	-12	16	-12	2	-371
Nc1cc(=O)[nH]c(=O)n1CC1CC1	-2.2	-4	0.4	1.9	-3	-5	-21	4.0
Cc1nn(Cc2ccccc2)c(C)c1NC(=O)CSc1nc2sc3c(c2c(=O)n1C)CCC3	-0.7	56	0.0	2.9	.	.	15	-4.1
CCOC(=O)C1(Cc2ccc(OC)cc2)CCN(C(=O)CCc2cccnc2)CC1	-2.0	-3	0.0	-2.2	5	3	-6	0.7
Cc1cc(NC(=O)CSCC(=O)OC(C)C(=O)c2cc(C)c(C)cc2C)no1 (stereo not given)	0.3	-2	1.6	-3.9	-5	-6	-7	-0.2
CC(=O)c1sc(NC(=O)C2=NN(c3ccccc3)C(=O)CC2)nc1C	-2.9	7	-0.2	4.3	-1	-8	-6	8.4
c1ccc2sc(SN3CCOCC3)nc2c1	4.6	-12	-0.6	0.1	2	-3	-6	1.4
CC(C)(C)c1cc2nc(N)nc(N)n2n1	2.3	-4	0.7	-14	-2	-3	-26	2.6
COC(=O)C(N)Cc1ccc(OC)c([N+](=O)[O-])c1 (stereo not given)	0.7	-8	0.7	6.2	2	0	-5	5.7
O=C(Nc1cc(Cl)cc(Cl)c1)C(NCCO)c1ccccc1 (stereo not given)	4.2	-3	0.0	0.2	11	0	-21	0.1
O=C(NCCCN1CCCC1)c1ccc2c(c1)N(Cc1ccccc1F)C(=O)c1ccccc1S2(=O)=O	4.3	.	.	.	0	13	13	3.6
CCOCCCNC(=O)CN1C(=O)C(CC)Oc2ccccc21 (stereo not given)	1.7	-4	-0.4	4.5	-5	-4	-15	1.7
COc1ccc2c(c1)C(=O)N1[C@H]3c4cc(Cl)ccc4OC[C@@H]3[C@H](c3ccccc3)[C@]1(C)C(=O)N2	.	-3	0.9	4.5	.	8	.	1.0
COc1ccc2nc(Nc3nc(CSc4nc5ccccc5s4)cc(=O)[nH]3)nc(C)c2c1	3.0	.	0.5	13	6	.	26	-4.1
CC(=O)N1CCN=C1SCc1ccccc1	-3.2	-1	-0.4	1.3	-9	-31	0	5.6
CCOc1ccccc1NC(=O)C1CCCCN1S(=O)(=O)c1ccccc1 (stereo not given)	.	1	-1.2	-7.2	.	-3	.	4.9
N#Cc1c(NC(=O)C2CC2)sc2c1CCCCC2	-4.3	-12	-0.2	1.1	1	-7	8	5.7
COc1ccccc1NC(=O)C(=O)NCc1ccccc1Cl	?	-2	0.2	0.1	4	4	2	0.7
C#CCOCCOCCOCCNc1nc(N2CCN(C(=O)[C@H](CC(N)=O)n3cc(C(N)[C@@H](C)CC)nn3)CC2)nc(N2CCN(C(=O)[C@H](CCC(=O)O)n3cc([C@@H](N)CCCCN)nn3)CC2)n1 (stereo not given in full)	.	-2	0.1	6.0	.	-11	.	2.3
CCN1C(=O)[C@H]2[C@@H](c3ccc(-c4ccc(OC)cc4)c(OC)c3)N[C@@](Cc3ccccc3)(C(=O)OC)[C@H]2C1=O	.	-5	-0.8	-7.6	.	14	.	2.3
Cc1ccc(C(=O)OCCn2cc(C#N)c(=O)[nH]c2=O)cc1	0.2	.	0.2	-1.5	1	3	19	4.1
CCc1nnc2cccc(Cl)n12	8.3	1	0.1	-5.6	15	13	4	-1.6
Cn1c(SCc2cccnc2)nnc1-c1c[nH]c2ccccc12	6.9	-3	0.7	-8.5	9	-5	-3	6.0
Cn1c(=O)n(C)c2cc([N+](=O)[O-])c(N3CCN(C(=O)c4cccc(F)c4)CC3)cc21	-1.5	-2	-0.3	1.3	-10	-1	29	3.3
CCN(C(=O)COC(=O)CCc1ccccc1)c1ccccc1	4.5	-7	-0.2	-2.0	2	-8	-18	0.4
CN(C)c1ccc(C2NCC(CCl)O2)cc1 (stereo not given)	-0.8	-1	-0.6	-1.1	-3	32	-12	15
COc1cc2c(cc1CNC[C@H]1O[C@@H](n3cnc4c(N)ncnc43)[C@H](O)[C@@H]1O)OCO2	.	-4	0.2	0.6	.	5	.	3.9
CCOC(=O)C1CCCN(C(=O)c2cc(Cl)ccc2Cl)C1 (stereo not given)	0.2	-6	-0.4	1.5	0	5	-9	5.6
COc1ccc(CCN(C)C(=O)c2cc(S(=O)(=O)N3CCCCCC3)ccc2OC)cc1OC	-0.7	7	-0.5	-3.5	4	5	3	2.3
Remaining list, next part.
SMILES	RanGTP-Impb inh	Beta cell apopt	Bfl-1 A1 inh	LANA-H2B inh	Calb FLC	Beta2AR agonist	T cruzi repl	UCH37 inh
CCOC(=O)CN1C(=O)N[C@@H](c2cccc(C(F)(F)F)c2)[C@@H](C(=O)OC)[C@H]1C	?	3	0.5	-4.8	21	-9	-1	1.7
NC(=O)CC(NC(=O)c1ccccc1)c1ccc(NCc2ccc(F)c(F)c2)c([N+](=O)[O-])c1 (stereo not given)	?	-2	1.1	3.6	2	7	0	2.4
Cc1cc(-c2n[nH]c(=S)n2/N=C/c2ccc(Cl)c([N+](=O)[O-])c2)n[nH]1	3.6	4	-0.9	-0.9	1	-4	2	.
COc1cccc(NC(=O)CN2CCN(c3nc(-c4cccc(OC)c4)cs3)CC2)c1	-0.2	-2	0.7	0.9	6	1	8	4.9
COc1ccc(C(=O)NNC(=O)c2ccccc2[N+](=O)[O-])cc1[N+](=O)[O-]	6.8	0	-0.8	11	17	5	-7	0.9
CN(C)S(=O)(=O)Oc1cccc(C(=O)Nc2ccc(Cl)cc2)c1	1.3	2	-1.4	4.8	87*	2	17	4.0
CCOC(=O)Cc1c(C)nc2c(-c3ccccc3)c(-c3ccccc3)[nH]n2c1=O	4.2	.	.	.	-8	12	22	-50
CC(C)C(=O)OCC(=O)Nc1ccc(N=Nc2ccccc2)cc1	1.9	-5	-2.9	i	3	3	-2	4.1
CC(C)N(C(=S)NC1CC2CCC1C2)c1ccccc1 (stereo not given)	?	11	-0.2	4.4	3	5	3	4.5
COC(=O)Cc1csc(Nc2ccccc2Cl)n1	1.7	.	-1.3	4.9	4	9	1	5.3
CCc1ccc(NC(=O)CN2C(=O)C(=O)N(Cc3ccccc3)C2=O)cc1	0.8	-5	1.5	-0.6	0	.	0	2.3
COC(=O)c1ccccc1S(=O)(=O)NNC(=O)Nc1ccccc1	-3.9	-3	-0.5	2.6	6	-4	-8	3.9
Clc1ccc(-c2nnn(Cc3nc4ccccc4s3)n2)cc1	-0.2	-11	0.2	0.3	0	-1	6	-1.8
Cc1ccc(NC(=O)CSc2nc(NS(=O)(=O)c3ccccc3)cc(=O)[nH]2)cc1	2.2	.	0.1	-1.7	25	-4	-24	1.8
CCOC(=O)C1=NN(c2ccccc2)C(=O)C1	1.9	-7	0.0	-2.5	13	-10	-8	3.8
CN(CCOc1ccc(-c2ccn(S(=O)(=O)c3cccc4ccccc34)n2)cc1)c1ccccn1	0.1	1	-0.5	-2.4	2	76*	11	-2.9
Cn1c(SCC(=O)NC(C)(C)C)nnc1-c1cccc(NC(=O)c2ccccc2F)c1	3.9	-5	0.3	0.8	-7	4	-24	1.3
COc1ccc(S(=O)(=O)Nc2ccccc2C(=O)NCc2cccnc2)cc1	-1.1	1	-0.3	5.3	10	-3	-5	-22
Cc1cccc(C)c1NC(=O)N1CCN(c2nc3ccccc3s2)CC1	-1.0	4	-0.9	-3.1	-13	-1	-14	2.8
O=[N+]([O-])c1cc2c(cc1/C=N/NS(=O)(=O)c1ccc(Br)cc1)OCO2	1.2	-4	-0.5	2.7	-3	6	7	.

Screening results as filed in PubChem BioAssay.
